RanGTP-Imp inh: inhibitors of RanGTP-importin-beta interaction, primary screen, biochemical, FRET, CFP-Ran, YFP-importin-beta, homogeneous; cell-free CFP-Ran/YFP-importin-beta FRET ratio; inhibition, % (no concentration beside the values); 1.1% of 300,000 active; AID 2216;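 active = most replicates above 15%; inconclusive = exactly half above 15%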;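 note: 0% = DMSO wells and 100% = Ran loaded with GDP instead of GTP; wells of about 40 µL received 100 nL stock; the first replicate is given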
Beta apoptosis: beta cell apoptosis inhibition. INS-1E cytokine-induced death, ATP luminescence, 48 h; percent of positive-control rescue, neutral wells zero. protection from apoptosis, % (concentration not given with the values). AID 435005. 0.8% of 300,000 active;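 active = all replicates at 75% or more, or half of them and the mean; inconclusive = half reach 75% but not the mean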;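 note: 0% = cytokine-treated negative control wells and 100% = positive control rescue; higher means more ATP so stronger rescue from cytokine killing; wells of about 40 µL received 100 nL stock; the first replicate is given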
AF4-AF9 inh: blocks AF4 peptide binding to human AF9; 0.47% of 350,000 active; AID 651704; inhibition, % at 10 µM; P42568; AlphaScreen, biotin-AF4 peptide binding to FLAG-AF9;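 active = every replicate reaching a set inhibition limit, whatever the replicate mean, cut at about 25% in these data; inconclusive = mean inhibition reaches that limit but some replicates miss it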;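 note: 0% = plate neutral control median and 100% = total signal loss; the record names both 10 and 1 µM as test concentration; the first replicate is given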
Target sequence (P42568 whole entry, looked up): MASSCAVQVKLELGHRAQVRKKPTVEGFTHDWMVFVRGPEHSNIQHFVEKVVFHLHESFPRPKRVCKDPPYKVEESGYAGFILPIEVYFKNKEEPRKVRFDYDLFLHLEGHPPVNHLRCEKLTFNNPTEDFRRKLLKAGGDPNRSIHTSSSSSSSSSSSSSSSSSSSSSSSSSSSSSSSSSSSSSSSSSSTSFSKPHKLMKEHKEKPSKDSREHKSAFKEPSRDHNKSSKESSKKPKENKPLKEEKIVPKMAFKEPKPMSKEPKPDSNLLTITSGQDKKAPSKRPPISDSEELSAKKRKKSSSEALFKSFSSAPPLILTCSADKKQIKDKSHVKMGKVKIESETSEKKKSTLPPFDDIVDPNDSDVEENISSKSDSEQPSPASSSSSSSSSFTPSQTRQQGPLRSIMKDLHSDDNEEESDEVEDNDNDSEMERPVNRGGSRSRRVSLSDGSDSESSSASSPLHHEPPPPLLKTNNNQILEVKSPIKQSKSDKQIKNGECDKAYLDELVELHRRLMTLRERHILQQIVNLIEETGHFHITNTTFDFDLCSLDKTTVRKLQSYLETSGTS
T cruzi repl: blocks replication of Trypanosoma cruzi | T. cruzi beta-gal in NIH3T3, luminescence, 90 h | inhibition, % (test concentration not listed) | 1.4% of 300,000 active | AID 1885;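 active = mean inhibition across valid replicates above about 55%, limit read from the data; inconclusive = mean below that limit but half or more replicates reach it; inactive = mean below it, under half of replicates reach it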;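 note: signal also drops with host cell toxicity which is not excluded here; 0% = plate median of DMSO wells and 100% = zero luminescence signal; higher percent means less beta-gal luminescence so fewer parasites; stock transfer was 50 nL into about 50 µL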
rRNA inh HTS: inhibitors of bacterial rRNA selective over humanized ribosomes | E. coli WT GFP vs humanized-ribosome RFP mutants, fluorescence, 24 h; hits give low values; DMSO median 0, no signal -100 | GFP signal change (wild-type ribosome), % (test concentration not listed) | 1.6% of 350,000 active | AID 720706;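 active = significant combined selectivity score with lowered wild-type GFP, culture density cut under 30%, mutant RFP and density less affected; inactive = any of these conditions unmet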; note: one replicate is shown; some compounds called inactive have numbers as strong as hits
FGF22 binding: binders of recombinant human FGF22 by thermal shift | calls only at 9.99 µM | SYPRO orange fluorescence; percent of sucrose octasulfate shift, DMSO zero | Q9HCT0 | 1.5% of 340,000 active;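 active = melting point raised past a set limit in the mean and every replicate; inconclusive = no clear call; three in four hits are not shown here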
Target sequence (Q9HCT0 whole entry, looked up): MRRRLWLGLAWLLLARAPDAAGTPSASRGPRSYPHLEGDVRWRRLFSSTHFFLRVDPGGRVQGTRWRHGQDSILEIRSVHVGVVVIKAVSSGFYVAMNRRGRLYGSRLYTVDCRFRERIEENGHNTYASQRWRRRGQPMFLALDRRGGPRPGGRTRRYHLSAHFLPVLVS
Calb FLC: C. albicans growth modulation with fluconazole; C. albicans CaCi-2 (fluconazole-resistant clinical isolate) + fluconazole, Alamar Blue growth, 48 h; growth inhibition, % (test concentration not listed); 0.57% of 300,000 active; AID 1979;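 active = most replicates above 75%; inconclusive = exactly half above 75%; inactive = most below 75%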;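 note: all wells also contain fluconazole at 8 µg/ml as a sub-toxic cotreatment; 0% = median of DMSO wells and 100% = median of geldanamycin control wells; wells of about 8 µL received 7.5 nL stock; the first replicate is given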
ALR H2O2 inh: blocks human ALR sulfhydryl oxidase activity. P55789. purified ALR, DTT oxidation, H2O2 HRP-luminol luminescence. inhibition, % (no concentration beside the values). 3.8% of 290,000 active. AID 485317;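 active = mean and each replicate at 75% or more; inconclusive = only one of the two met; inactive = neither met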;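 note: stock transfer was 7.5 nL into about 7.5 µL; 0% = neutral wells and 100% = wells with inactivated enzyme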
Target sequence (P55789 whole entry, looked up): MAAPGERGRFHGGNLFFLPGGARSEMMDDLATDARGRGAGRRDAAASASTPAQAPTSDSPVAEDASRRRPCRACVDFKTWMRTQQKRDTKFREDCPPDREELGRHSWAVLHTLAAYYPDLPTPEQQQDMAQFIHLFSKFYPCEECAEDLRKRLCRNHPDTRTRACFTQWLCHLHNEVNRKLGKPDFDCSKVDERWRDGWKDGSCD
rRNA inh HTS OD600: second read-out of rRNA inh HTS, no call of its own (marks repeat the call); OD600 change, %; measured here: OD600 growth;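 optical density of the mix in the first replicate; 0 = DMSO median and -100 = no signal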
rRNA inh HTS RFP: recorded beside rRNA inh HTS, whose call it bears; RFP signal change, %; measured here: RFP humanized mutant strains;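 first replicate; 0 = DMSO median and -100 = no signal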
Starred values were filed as active, the others as inactive; i = inactive; ? = inconclusive; nt = not tested or not shown. Only part of the results is shown; the hit share may differ from the screen's.

SMILES	RanGTP-Imp inh	Beta apoptosis	AF4-AF9 inh	T cruzi repl	rRNA inh HTS	rRNA inh HTS OD600	rRNA inh HTS RFP	FGF22 binding	Calb FLC	ALR H2O2 inh
C#CCOc1ccc(Br)cc1/C=N/O	1.0	-6	nt	-11	nt	nt	nt	nt	-11	18
CN(/N=C/Cc1nnnn1-c1ccc(Cl)cc1)c1ccccc1	-3.2	2	nt	12	-22*	-12*	3.0*	i	-12	1
COc1c(C(=O)Nc2ccc(CN3CCOCC3)cc2)cc2ccccc2c1Br	9.2	6	-0.2	20	8	10	-0.2	i	-5	-2
COc1ccc(C(=O)n2nc(-c3ccc(Cl)cc3)nc2N)cc1OC	-3.4	-13	nt	12	nt	nt	nt	nt	-1	11
O=c1cc(CSCc2ccc(Cl)cc2)[nH]c(=O)[nH]1	-0.5	-11	-0.1	-1	1	0	-1.0	i	0	0
COc1ccc(C(c2c(C)[nH]n(-c3ccccc3)c2=O)c2c(C)[nH]n(-c3ccccc3)c2=O)cc1OC	-2.1	1	nt	3	nt	nt	nt	nt	5	1
COc1ccc(-c2nnn(CC(=O)N(CCCO)C(C(=O)NC3CCCC3)c3ccncc3)n2)cc1 (stereo not drawn)	4.4	1	-1.3	3	-1	9	-0.5	i	32	nt
O=C(CC(NC(=O)OCc1ccccc1)C(=O)O)OCc1ccccc1 (stereo not drawn)	5.0	-3	0.8	-11	10	6	-10	i	-4	-1
CCN(c1ccccc1)S(=O)(=O)c1ccc(OC)c(NC(=O)Cc2ccccc2OC)c1	nt	11	1.3	nt	nt	nt	nt	i	nt	-3
COc1ccc(Cc2nnc(SCC(=O)c3ccc4c(c3)NC(=O)CO4)o2)cc1	0.5	-8	-1.3	1	4	6	-0.4	nt	4	-7
NC(=O)CC(NC(=O)c1ccccc1)c1ccc(NC2CCCCCCC2)c([N+](=O)[O-])c1 (stereo not drawn)	-1.1	8	2.7	-5	nt	nt	nt	i	-7	0
COc1ccc(-c2ccc(SCc3cccnc3)nn2)cc1OC	2.4	21	-3.5	8	-26	-31	-6.8	i	4	nt
O=C(Nc1ccc2cn[nH]c2c1)c1ccc(Cl)c(S(=O)(=O)N2CCOCC2)c1	8.7	-1	6.3	-6	-8	-11	-5.3	i	-22	-18
O=C1CC(/C=C/c2ccncc2)=Nc2ccccc2N1	?	-8	-0.3	19	7	2	4.8	i	-10	1
O=C(NCCN1CCOCC1)c1ccc(NS(=O)(=O)c2cccc([N+](=O)[O-])c2)cc1	2.9	2	8.6	-10	4	12	-3.5	i	32	nt
COc1ccc(OCC(=O)NC(=O)c2ccccc2OC)c([N+](=O)[O-])c1	0.1	-3	-0.9	-9	7	15	2.4	i	nt	-35
O=C(Nc1ccccc1)OC1CCC2CC1CCC2OC(=O)Nc1ccccc1 (stereo not drawn)	1.4	29	-24	48	-20	-23	-11	i	-1	-3
CNS(=O)(=O)c1cccc(C(=O)OCC(=O)Nc2nc(OC)cc(OC)n2)c1	nt	0	0.4	nt	14	12	-1.1	i	nt	-5
CCOc1ccc(C(C(=O)NC2CCCCC2)N(C(=O)c2csnn2)C2CC2)cc1 (stereo not drawn)	2.6	-2	1.6	0	7	9	0.1	i	14	15
COc1cc(CN2CC(=O)N(c3ccc(C)c(Cl)c3)C2=S)cc(OC)c1OC	-1.9	-3	-1.9	-7	13	6	4.3	i	0	9
COc1ccc(C(=O)Nc2nnc(SCC(=O)NC3CCCC3)s2)c(OC)c1	-0.2	4	-4.4	3	4	12	0.5	i	7	2
Cc1cc(C)c(S(=O)(=O)N2CCCOC2CNC(=O)C(=O)NCc2cccnc2)c(C)c1 (stereo not drawn)	-2.7	2	-3.1	3	10	13	3.4	i	4	0
CCOC(=O)[C@@H]1[C@H]2COc3ccc(Br)cc3[C@H]2N2C(=O)N(c3ccc(F)cc3)C(=O)[C@]12C	-4.6	-9	-1.6	-31	6	-4	-1.3	i	13	-9
Cc1cc2nc(C)n(CCCNC(=O)Nc3ccc(C#N)cc3)c2cc1C	-0.8	4	nt	21	nt	nt	nt	nt	3	-8
O=C(C1CCCCC1)N1CCN(c2ccnc3cc(Cl)ccc23)CC1	1.4	42	2.3	0	nt	nt	nt	i	59	nt
Cn1c(=O)c2c(nc(CN3CCc4ccccc4C3)n2Cc2ccccc2)n(C)c1=O	0.3	8	nt	18	nt	nt	nt	nt	nt	-3
CSc1ncnc2c1cnn2-c1ccc(C)cc1C	3.8	0	-3.8	-14	-5	-7	-14	i	62	-2
CCOc1ccccc1NC(=S)NC(=O)c1ccco1	3.0	nt	2.2	0	9	13	3.8	i	5	nt
CSCCC(=O)N1CCC(n2nccc2NC(=O)CCCc2ccccc2)CC1	-1.8	-1	-1.0	-12	-1	5	-0.4	i	-3	-2
NS(=O)(=O)c1ccc(CCN=C(NS(=O)(=O)c2cccs2)c2ccccc2)cc1	1.9	-1	-0.3	-17	3	-3	-1.0	i	-19	4
C/C(=N\NC(=O)c1ccc(Cl)c(Cl)c1)c1ccc(Br)s1	1.3	24	nt	70*	nt	nt	nt	nt	-7	2
CC1CC(C)CN(C(=O)C(NS(=O)(=O)c2ccc(Br)s2)c2ccccc2)C1 (stereo not drawn)	-1.1	-5	nt	19	nt	nt	nt	nt	5	nt
CCOC(=O)N1CCN(C(=O)c2c(O)c3cccc4c3n(c2=O)CC4)CC1	2.5	1	nt	-20	nt	nt	nt	nt	-3	-2
COCCCNC(=O)Cn1ccc(N)nc1=O	nt	-3	-7.9	nt	5	5	-5.5	i	nt	3
CC(=O)c1ccc(N2CCN(S(=O)(=O)c3c(C)[nH]c(C)c3C(=O)N3CCCC3)CC2)cc1	0.4	-2	1.9	-5	1	-1	-1.0	i	-3	-9
O=C(CSc1nnc(-c2ccncc2)o1)Nc1nncs1	0.5	-1	1.7	-12	3	5	-3.1	i	-30	-10
CCn1nc(C)c(CN2CCCC(CNS(=O)(=O)c3ccc(OC)cc3)C2)c1C (stereo not drawn)	-2.0	2	-0.6	42	7	12	2.0	i	-2	1
CC1(C)CC(NC(=O)C2CCN(S(=O)(=O)c3ccccc3C(F)(F)F)CC2)CC(C)(C)N1	-0.6	nt	-0.7	1	10	11	0.2	i	-5	3
[NH-]c1ncnc2c1N=C[N+]2=CC=CCO	5.5	-6	-0.5	-19	6	10	0.2	i	-3	-5
Cc1ccc(-n2nc3c(=O)n(CC(=O)NCCC4=CCCCC4)nc(C)c3c2C)cc1	-1.4	1	7.5	-3	6	8	-0.8	i	23	nt
COc1cc(C2C(C#N)=C(N)N(c3sc4c(c3C#N)CCCC4)C3=C2C(=O)CC(C)(C)C3)cc(OC)c1OC (stereo not drawn)	-8.2	15	nt	44	nt	nt	nt	nt	2	0
O=C(Nc1ccc2c(c1)OCO2)c1ccccc1	4.9	7	-5.8	0	4	5	-3.4	i	-2	-9
COc1cc(-c2c(NC(=O)c3ccco3)oc3c(C)cccc3c2=O)cc(OC)c1OC	-2.5	-6	-5.2	-3	0	4	1.6	i	37	-6
Oc1ccc(-c2n[nH]c(=S)n2Cc2ccccc2)cc1	-3.7	-3	nt	3	nt	nt	nt	nt	6	97*
O=C(Nc1nc2ccccc2s1)Nc1ccc(F)cc1F	0.6	-2	-3.4	2	20	17	1.9	i	-1	-16
Clc1ccc(SCCCCn2ccnc2)cc1	3.4	-7	nt	37	nt	nt	nt	nt	-4	-28
COc1cccc(C(=O)NCCn2ccc3ccccc32)c1	-1.6	-2	3.9	2	-10	-3	5.7	i	-2	-1
CCSc1nnc(NC(=O)CSc2nc3c(c(=O)n2CCOC)SC(C)C3)s1 (stereo not drawn)	6.7	9	2.1	-10	-1	-9	-1.1	i	0	3
COc1cccc(C(C(=O)NC2CCCC2)N(C(=O)CNC(=O)c2ccco2)c2cccnc2)c1 (stereo not drawn)	0.5	-7	0.4	-1	10	24	-0.9	i	6	nt
COc1ccccc1N1CCN(C(CNS(=O)(=O)c2ccc(C)cc2)c2cccnc2)CC1 (stereo not drawn)	-2.2	-2	nt	47	nt	nt	nt	nt	-3	-1
COc1ccc(N2CCN(C(=O)COC(=O)CCS(=O)(=O)c3ccc(C)cc3)CC2)cc1	0.7	0	-5.1	-6	-4	0	0.8	i	-1	50
O=C(Nc1cccc(F)c1)/C(=C\c1cccnc1)NC(=O)c1cccs1	-0.6	-20	nt	1	nt	nt	nt	nt	3	-2
CCOc1ccccc1NC(=O)NCc1ccccc1F	0.1	0	0.1	17	-7	-2	-0.6	i	?	-1
COC(=O)N/N=C(C)/C=C/c1ccccc1	-4.8	0	nt	6	nt	nt	nt	nt	-9	-10
O=C(O)c1ccc(-c2noc(-c3ccccc3Cl)n2)cc1	2.0	-2	-4.7	-6	-16	-4	9.9	i	5	5
O/N=C1\CC2(Cc3nonc31)OCCO2	-4.0	-7	nt	-1	nt	nt	nt	nt	-6	nt
O=C(Nc1ccccc1)/C(=C/c1ccccc1)NC(=O)c1ccco1	-1.8	4	-1.0	7	nt	nt	nt	i	-1	48
COC(=O)c1[nH]c2ccc(Br)cc2c1NC(=O)CN1CCN(C2CCCCC2)CC1	-1.1	-11	nt	49	nt	nt	nt	nt	46	nt
O=C(CSc1oc(-c2cccs2)nc1S(=O)(=O)c1ccccc1)NC1CCCCC1	1.8	-12	nt	60*	nt	nt	nt	nt	-20	-2
Cc1cc(OCCCCCNCCO)cc(C)c1Cl	11	0	nt	18	nt	nt	nt	nt	-9	-3
Continued.
SMILES	RanGTP-Imp inh	Beta apoptosis	AF4-AF9 inh	T cruzi repl	rRNA inh HTS	rRNA inh HTS OD600	rRNA inh HTS RFP	FGF22 binding	Calb FLC	ALR H2O2 inh
COc1ccc(C(=O)N2CCN(C(C)=O)CC2)cc1S(=O)(=O)NCc1ccc(Cl)cc1	4.7	-17	nt	3	nt	nt	nt	nt	0	-6
Cc1ccc(OCC(=O)NCCO)c(Br)c1	5.0	2	-2.4	-7	6	15	-2.2	i	-22	nt
CCOC(=O)N1CCC(NC(=O)C2CCN(S(=O)(=O)N3CCCC3)CC2)CC1	2.1	-7	nt	-10	nt	nt	nt	nt	16	-3
CC12CN(C(=S)Nc3ccccc3)CC(C)(CN(C(=S)Nc3ccccc3)C1)C2=O	?	-6	-0.9	-4	3	8	-2.7	i	2	19
CC(C)c1ccc(NC(=O)C2CCN(S(C)(=O)=O)CC2)cc1	-1.1	-12	nt	-10	nt	nt	nt	nt	-5	-10
Cc1cc(C)n(/N=C/c2ccco2)c(=O)c1C#N	-2.4	-6	-5.8	-16	7	-2	0.0	i	2	0
COc1ccc(NC(=O)c2cccs2)c([N+](=O)[O-])c1	0.8	-3	nt	-9	nt	nt	nt	nt	-2	-12
CCOC(=O)CSc1nnc(Cn2nnc3ccccc32)n1-c1ccc(F)cc1	1.2	7	nt	-8	9	10	1.8	i	4	-18
Cc1ccc(S(=O)(=O)N2CCCC(C(=O)NCc3ccccc3F)C2)cc1 (stereo not drawn)	3.8	-1	1.6	-4	1	6	-1.5	i	27	4

Bioassay records as filed in PubChem.
